MLL AF4-AF9 inh: inhibitors of AF4 peptide binding to AF9, primary screen, biochemical, AlphaScreen, biotin-AF4 peptide, FLAG-AF9, single point. AID 651704, 2012. 350,000 tested, 0.47% active. inhibition, % at 10 µM. Protein AF-9 (Homo sapiens), P42568;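 active = every replicate reaching a set inhibition limit, whatever the replicate mean, cut at about 25% in these data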;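 also: 0% = plate neutral control median and 100% = total signal loss; the record names both 10 and 1 µM as test concentration; the first replicate is given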
FGF22 binding: binders of human FGF22 protein, primary screen, FGF22 synaptogenesis inhibitor project, biophysical, thermal shift, single point. recombinant FGF22 thermal shift, SYPRO orange fluorescence; percent of sucrose octasulfate shift, DMSO zero. calls only at 9.99 µM. 340,000 tested, 1.5% active;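 active = melting point raised past a set limit in the mean and every replicate; three in four hits are not shown here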
Target sequence (Q9HCT0 whole entry, looked up): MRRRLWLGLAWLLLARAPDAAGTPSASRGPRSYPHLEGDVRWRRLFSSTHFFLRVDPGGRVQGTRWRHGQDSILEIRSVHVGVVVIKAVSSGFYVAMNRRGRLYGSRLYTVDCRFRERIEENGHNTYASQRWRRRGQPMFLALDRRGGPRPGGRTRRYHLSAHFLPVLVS
ALR H2O2 inh: inhibitors of human ALR sulfhydryl oxidase, primary screen, biochemical, H2O2 detection, HRP-luminol luminescence, single point; FAD-linked sulfhydryl oxidase ALR (Homo sapiens), P55789; purified ALR, DTT oxidation; inhibition, % (concentration not given with the values); 290,000 tested, 3.8% active; AID 485317, 2010;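 active = mean and each replicate at 75% or more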;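 also: stock transfer was 7.5 nL into about 7.5 µL; 0% = neutral wells and 100% = wells with inactivated enzyme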
Target sequence (P55789 whole entry, looked up): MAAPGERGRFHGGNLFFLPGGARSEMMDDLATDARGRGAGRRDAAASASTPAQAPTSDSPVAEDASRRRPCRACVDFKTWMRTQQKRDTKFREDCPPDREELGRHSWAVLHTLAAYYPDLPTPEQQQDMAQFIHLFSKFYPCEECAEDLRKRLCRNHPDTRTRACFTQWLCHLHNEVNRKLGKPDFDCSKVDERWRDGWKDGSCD
Ecoli growth: E. coli growth inhibition, primary screen, OD600 | OD600 absorbance (test concentration not listed) | Escherichia coli growth, 23 h; active compounds read low | 330,000 tested, 0.21% active;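 active = OD600 absorbance below the run mean of sample wells minus 3.6 SD, in any replicate, cut at about 0.56 in these data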;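 also: stock transfer was 300 nL into about 60 µL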
Ecoli rRNA inh: reduced GFP signal of wild-type E. coli, primary screen, bacterial rRNA inhibitor project, GFP/RFP fluorescence, OD600, single point | AID 720706, 2013 | GFP signal change (wild-type ribosome), % (concentration not given with the values) | E. coli WT GFP vs humanized-ribosome RFP mutants, 24 h; active compounds read low; DMSO median 0, no signal -100 | 350,000 tested, 1.6% active;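 active = significant combined selectivity score with lowered wild-type GFP, culture density cut under 30%, mutant RFP and density less affected; inactive = any of these conditions unmet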; also: one replicate is shown; some compounds called inactive have numbers as strong as hits
Vif TR-FRET: inhibitors of Vif binding to APOBEC3G peptide, primary screen, biochemical, TR-FRET, GST-Vif 1-94, biotin-A3G peptide, dose response retest (AID 1117319); Virion infectivity factor (Human immunodeficiency virus type 1 group M subtype B (isolate …; TR-FRET GST-Vif / biotin-A3G peptide binding; higher % means a stronger effect; test concentration not given here; strong numbers were not always called active; one-dose inhibition, %; IC50 in µM for titrated hits; 260,000 tested, 0.57% active;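 active = above the screen mean plus three standard deviations and confirmed in dose response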;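 also: Vif residues 1-94 fused to GST binding biotinylated APOBEC3G peptide 110-148; 0% = full assay without inhibitor and 100% = GST in place of GST-Vif; retest series ran down from 100 µM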
HNF4A DNA FP: change in binding of human HNF4A to DNA, primary screen, biochemical, fluorescence polarization, FITC-DNA. Hepatocyte nuclear factor 4-alpha (Homo sapiens), P41235. 1 h. activity change, % at 10 µM. 360,000 tested, 0.3% active; in the data active = activity change above about 30%, passing the limit was not always enough;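 also: controls were the assay level and a saturating level of protein; the project sought stronger binding though the title names inhibitors; some compounds called inactive have numbers as strong as hits; positive values seem to mean higher polarization but the record does not say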
Target sequence (P41235 whole entry, looked up): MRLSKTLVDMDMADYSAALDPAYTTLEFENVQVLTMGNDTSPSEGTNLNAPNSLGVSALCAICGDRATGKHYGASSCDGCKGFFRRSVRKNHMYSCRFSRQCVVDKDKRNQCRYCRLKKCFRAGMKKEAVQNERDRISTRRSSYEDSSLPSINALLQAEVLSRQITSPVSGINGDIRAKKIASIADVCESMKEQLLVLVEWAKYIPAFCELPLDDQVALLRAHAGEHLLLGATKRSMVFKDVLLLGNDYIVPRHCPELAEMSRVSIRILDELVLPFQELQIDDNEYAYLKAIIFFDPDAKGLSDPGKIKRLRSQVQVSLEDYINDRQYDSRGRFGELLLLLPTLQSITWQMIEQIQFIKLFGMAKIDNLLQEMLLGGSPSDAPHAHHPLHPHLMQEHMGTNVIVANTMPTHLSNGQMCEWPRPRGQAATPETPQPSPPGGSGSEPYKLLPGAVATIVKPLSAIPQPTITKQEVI
Ecoli rRNA inh OD600: also measured in Ecoli rRNA inh; calls as there; OD600 change, %; measured here: OD600 growth;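 optical density of the mix in the first replicate; 0 = DMSO median and -100 = no signal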
Ecoli rRNA inh RFP: recorded beside Ecoli rRNA inh, whose call it bears; RFP signal change, %; measured here: RFP humanized mutant strains;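 first replicate; 0 = DMSO median and -100 = no signal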
* marks the source's active call; other numbers are inactive results; i = inactive; nt = not tested or not shown. An excerpt. The share of hits here may be higher or lower than overall.

SMILES | MLL AF4-AF9 inh | FGF22 binding | ALR H2O2 inh | Ecoli growth | Ecoli rRNA inh | Ecoli rRNA inh OD600 | Ecoli rRNA inh RFP | Vif TR-FRET | HNF4A DNA FP
O=C(NC1CCCCCC1)c1ccc(CS(=O)Cc2ccccc2Cl)o1 (configuration not stated) | -8.3 | i | 68 | 0.7 | -16 | -21 | -1.7 | nt | -2.0
CCC(CC)C1=NN2C(=N)/C(=C/c3ccc(OC(=O)c4ccco4)cc3)C(=O)N=C2S1 | -0.3 | i | 74 | 0.65 | -2 | -1 | 1.4 | nt | 0.5
c1ccc(C2CC3CC(c4ccccc4)N2O3)cc1 (configuration not stated) | 3.1 | i | nt | 0.64 | 3 | 5 | 0.9 | -5% | -1.7
CCCCC/C(=N\NC(=O)CCC(=O)NCc1ccccc1)c1ccccc1 | 0.7 | i | 1 | nt | -2 | 9 | -4.5 | -7% | -4.3
CCn1c(SCC(=O)Nc2ccc3c(c2)OCCO3)nnc1-c1cccs1 | nt | nt | -18 | 0.71 | nt | nt | nt | -2% | 1.1
Cc1ccn2c(C(=O)NN=C3CCN(C)CC3)c(C)nc2c1 | -1.4 | i | 10 | 0.71 | 12 | 10 | 0.8 | 9% | -0.6
CC(=O)Nc1ccc(S(=O)(=O)N(C)c2nc3ccccc3nc2Cl)cc1 | 1.8 | i | -1 | 0.65 | -25 | -49 | -9.3 | nt | -0.6
Cc1cccc(Nc2ccc(C(=O)O)cc2[N+](=O)[O-])c1C | -1.5 | i | 1 | 0.67 | 1 | -7 | -3.4 | -4% | -7.6
Cc1cccc(Cn2ccc(NC(=O)c3ccc4c(c3)OCO4)n2)c1 | -1.3 | i | 12 | 0.67 | -18 | -16 | 5.5 | 5% | 4.3
COc1cc(OC)cc(C(=O)Nc2cc(C)on2)c1 | 1.1 | i | -5 | 0.66 | -1 | 3 | -1.6 | nt | 5.6
CN(/N=C/c1ccccc1O)C(=S)c1ccccc1 | 13 | i | nt | nt | -2 | 0 | 0.1 | nt | 2.9
C/C(=N\NC(=S)NCc1ccccc1)c1cccs1 | 11 | i | 6 | nt | -14 | -2 | 2.7 | -11% | 5.6
O=C(CCCC(=O)N(CC(=O)NC1CCCC1)C1CCCC1)Nc1ccccn1 | nt | nt | -4 | 0.7 | nt | nt | nt | 2% | 1.2
CC1Cc2nc(SCC(=O)N3CCN(c4ccccc4)CC3)n(C)c(=O)c2S1 (configuration not stated) | 5.1 | i | 98* | 0.79 | 1 | 2 | -3.7 | 5% | 2.2
C[C@@H]1CCCCO[C@@H](CN(C)C)[C@H](C)CN([C@H](C)CO)C(=O)c2cc(NS(=O)(=O)c3ccc(F)cc3)ccc2O1 | -0.4 | i | nt | nt | 1 | 3 | -0.6 | nt | nt
O=C(CN1CCSCC1)N/N=C/c1ccc(F)cc1F | -0.5 | i | 1 | nt | 8 | 10 | -7.1 | 1% | 0.6
CC(C)NC(=O)N(C)C[C@@H]1Oc2c(NC(=O)CCCCCC(=O)Nc3ccccc3N)cccc2C(=O)N([C@H](C)CO)C[C@H]1C | 1.4 | i | nt | nt | 4 | 9 | 2.9 | nt | nt
COc1ccc2c3c(n(C)c2c1)[C@H](CO)NCC31CCN(S(=O)(=O)c2ccc(C)cc2)CC1 | 3.2 | i | nt | nt | -37 | -71 | 8.0 | nt | nt
Cc1ccc(NS(=O)(=O)c2ccc(C(=O)N3CC(C)CC(C)C3)cc2)cc1 (configuration not stated) | -15 | i | 2 | 0.71 | -19 | -37 | -0.5 | 1% | -0.8
O=C(Nc1ccc2c(c1)CN(Cc1ccccc1O)CC2)C1CCCO1 (configuration not stated) | -0.3 | i | 18 | 0.72 | 3 | 2 | -2.5 | -5% | -2.9
COc1ccc(CN2[C@H](CO)[C@@H]3c4ccccc4N(C(=O)Nc4ccccc4)C[C@@H]32)cc1 | 0.3 | i | nt | nt | -2 | 5 | 2.7 | nt | nt
CCc1noc(C)c1C(=O)N1CCCSC1=Nc1ccccc1 | -7.7 | i | -3 | 0.67 | 3 | -7 | -0.4 | nt | 0.1
O=S(=O)(c1ccccc1)N1CCCCN2[C@H](CO)[C@@H](c3ccc(C#Cc4ccccc4)cc3)[C@H]2C1 | -2.5 | i | nt | nt | 0 | 4 | 2.4 | nt | nt
Cc1noc(C)c1NC(=O)N[C@H]1CC[C@@H](CCNC(=O)C2CCC2)O[C@H]1CO | -1.8 | i | nt | nt | 2 | 1 | -0.1 | nt | nt
COc1ccc(S(=O)(=O)N2CCC3(CC2)CN(C(=O)c2cccnc2)[C@@H](CO)c2c3c3ccc(OC)cc3n2C)cc1 | -0.7 | i | nt | nt | -7 | -6 | 7.0 | nt | nt
COC(=O)NC(=C(Cl)Cl)S(=O)(=O)c1ccccc1 | nt | nt | -17 | 0.76 | nt | nt | nt | 17% | 0.1
COc1ccc(CNC(=O)c2coc(=O)c3ccccc23)cc1 | -1.1 | i | -3 | 0.71 | 7 | 7 | 1.1 | 9% | 0.6
C/C=C/c1ccc([C@@H]2[C@H](CO)N3C(=O)CN(C(=O)Nc4ccccc4F)C[C@@H]23)cc1 | -3.9 | i | nt | nt | 0 | 14 | 0.7 | nt | nt
COc1ccc(CNC(=O)CN(C(=O)CCC(=O)Nc2nccs2)c2ccccc2C)cc1 | 2.5 | i | 4 | 0.66 | -7 | -13 | 1.1 | 16% | 3.4
Cc1ccc2nc3c(cc(C(=O)NCCc4ccccc4)c(=N)n3CCCN3CCOCC3)c(=O)n2c1 | 2.5 | i | -3 | 0.7 | 2 | 9 | -3.5 | nt | -1.8
COC(=O)c1scc(C)c1S(=O)(=O)Nc1ccc(C)cc1 | -1.5 | i | 0 | 0.62 | -18 | -14 | -1.0 | nt | -0.2
COc1cccc(S(=O)(=O)N2CCC3(CC2)CN[C@H](CO)c2c3c3ccc(OC)cc3n2C)c1 | 12 | i | nt | nt | -8 | -26 | 3.3 | nt | nt
Cc1cccc(C(=O)O)c1NC(=O)Cc1cccc2ccccc12 | -4.4 | i | 1 | 0.69 | -7 | -5 | -2.7 | 0% | -3.7
O=C(Nc1ccccc1F)N[C@@H]1CC[C@@H](CC(=O)N2CCCCC2)O[C@H]1CO | -3.0 | i | nt | nt | -1 | 2 | -0.2 | nt | nt
CCC1CCCCN1S(=O)(=O)c1ccc2c(c1)CCN2C(C)=O (configuration not stated) | -0.2 | i | -1 | 0.66 | 7 | 5 | 1.7 | nt | 3.5
O=C1CSc2ccc(C(=O)NCCc3ccc(Cl)cc3Cl)cc2N1 | -3.8 | i | nt | 0.66 | 1 | 12 | 7.0 | nt | 0.6
Cc1ccc2c(c1)N(S(=O)(=O)c1ccc3c(c1)NC(=O)CC(=O)N3)CCO2 | 0.7 | i | nt | 0.72 | 2 | -1 | -0.4 | -6% | 3.5
O=C(CCCNC(=O)c1ccc(Cl)cc1)Nc1ccc(S(=O)(=O)Nc2ncccn2)cc1 | 3.4 | i | 2 | 0.65 | 8 | 4 | 0.2 | -6% | 4.0
CCCCc1c(O)nc(SCC(=O)c2ccccc2)n(-c2ccccc2OC)c1=O | -0.9 | i | 99* | 0.62 | -17 | -20 | 2.5 | -9% | 2.2
CN1C(=O)c2cc(NS(=O)(=O)c3cccc(F)c3)ccc2OC[C@H]2O[C@H](CC(=O)N3CCc4ccccc4C3)CC[C@@H]21 | 0.6 | i | nt | nt | 2 | -11 | 1.1 | nt | nt
CC(NC(=O)C1CCCCC1)C(c1cccs1)N1CCN(C)CC1 (configuration not stated) | -2.4 | i | -7 | 0.77 | 10 | 14 | -1.4 | nt | -3.7
COc1ccccc1C(=O)N1C(CC(=O)Nc2ccccc2C)C(=O)NC2CCCCC21 (configuration not stated) | -2.1 | i | -4 | 0.67 | 4 | 8 | 1.8 | 0% | 1.8
O=C(Nc1cc(Cl)cc(Cl)c1)c1coc(=O)c(Br)c1 | -2.5 | i | 13 | nt | nt | nt | nt | 19µM* | -0.3
C=C(C)C1CC=C(C)/C(=N\NC(=O)CNc2ccccc2OC)C1 (configuration not stated) | 15 | i | -2 | nt | -7 | -7 | -1.8 | 12% | -5.4
CCn1c(C)nc2cc(C(=O)NNC(=O)Nc3ccc(Cl)cc3)ccc21 | -0.2 | i | 40 | 0.63 | -1 | -1 | 19 | 29% | 0.2
C/C(=N\N1CCN(Cc2ccccc2)CC1)c1ccco1 | -3.3 | i | -11 | nt | 12 | 16 | -4.2 | 2% | -0.5
Nc1nnc(CSCc2ccc(F)cc2)s1 | nt | nt | -11 | 0.64 | nt | nt | nt | -3% | -2.3
COc1ccccc1NC(=O)COC(=O)CCc1ccc(S(=O)(=O)N2CCOCC2)cc1 | 2.6 | i | -2 | 0.69 | 2 | 1 | 1.6 | nt | 2.4
O=C(CNC(=O)OCc1ccccc1)NC1CCCCNC1=O (configuration not stated) | 48* | i | nt | 0.73 | 1 | 3 | -0.9 | -2% | -0.7
Cc1cccc(NC(=O)c2ccc(NCC3CCCO3)c([N+](=O)[O-])c2)c1 (configuration not stated) | nt | nt | -6 | 0.67 | nt | nt | nt | -2% | 2.6
COc1ccc(NC(=O)C(C)N2C(=O)c3ccccc3C2=O)c(OC)c1 (configuration not stated) | -2.5 | i | -17 | 0.66 | -7 | 0 | -2.5 | nt | 2.0
CCc1ccc(OC(C)C(=O)N(Cc2ccco2)C2CCS(=O)(=O)C2)cc1 (configuration not stated) | 5.0 | i | -10 | 0.69 | -2 | -3 | -0.5 | nt | -0.8
CCCN(C)C[C@@H]1Oc2cc(-c3ccc(C#N)cc3)ccc2S(=O)(=O)N([C@@H](C)CO)C[C@@H]1C | 2.0 | i | nt | nt | 2 | 3 | 0.5 | nt | nt
O=C(O)c1[nH]c2ccccc2c1CC(=O)N1CCOCC1 | nt | nt | 1 | 0.68 | nt | nt | nt | 2% | 2.4
